CDC25B-CDK2 inh: human CDC25B-CDK2/CyclinA binding inhibition; P30305+P24941; HTRF CDC25B-CDK2/CyclinA binding, anti-His/anti-Flag; hits give high values; z-score (test concentration not listed); actives 0.72% (n = 94,000);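 further: score is relative to mean and SD of negative controls; strong numbers were not always called active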
HIV TAR-Tat: HIV-1 TAR-Tat binding disruption | HIV-1 TAR RNA, Tat peptide displacement FRET; hits give high values | z-score (concentration not given with the values) | actives 0.6% (n = 100,000) | AID 1259389;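 further: score is relative to mean and SD of negative controls; some compounds called inactive have numbers as strong as hits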
Numbers without * were called inactive; · = not tested or not shown; & = joins results of further samples.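 How the source made its calls: active means z-score from 3 up in half or more of its runs; inactive means the rest.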

SMILES	CDC25B-CDK2 inh	HIV TAR-Tat
CCOC(=O)c1nc(-c2nn(-c3ccc(F)cc3)c(=O)n(C)c2=O)no1	-1.6	0.95
Cc1noc(/C=C/c2ccc(S(=O)(=O)Nc3ccc(Cl)cc3)s2)c1[N+](=O)[O-]	·	1
Cc1ccc(-c2noc(CCn3c(=O)[nH]c4cc5c(cc4c3=O)OCO5)n2)cc1	·	0.89
COc1cccc(Cn2cc3c(-c4ccc(F)cc4)nnc-3c3cc4c(cc32)OCO4)c1	-2.8	0.31
COc1ccccc1/C=C/c1nc(C#N)c(N(C)C)o1	-0.46	1.2
CCOC(=O)C1CCN(S(=O)(=O)c2cc3[nH]c4c(c3cc2CC)C(=O)CC(C)(C)C4)CC1	·	0.08
O=C(Nc1ccc2nc(SCc3cc(=O)n4nc(C5CC5)sc4n3)sc2c1)c1ccco1	·	0.8
Cc1ccc(-c2cc(C(F)(F)F)c(C#N)c(SCC(=O)O)n2)cc1	-0.58	0.21
O=C(Nc1nc2c(ccc3ccccc32)s1)c1ccco1	-0.28	0.96
Cc1ccc(C)c(N2C(=O)N(Cc3ccccc3F)C3CS(=O)(=O)CC32)c1 (stereo not drawn)	·	0.31
COc1ccc(-c2nnc(C3CCN(S(=O)(=O)c4cccs4)CC3)o2)cc1	1.3	0.33
O=C1COc2cc(S(=O)(=O)N3CCc4ccccc4C3)c(Cl)cc2N1	·	1.6
NS(=O)(=O)c1ccc(NC(=O)CSc2nnc3ccccn23)cc1	-0.19	·
COc1ccc2ncc(S(=O)(=O)c3ccccc3)c(N3CCN(c4ccccc4)CC3)c2c1	-0.08	0.72
CCOC(=O)N1CCN(CC(=O)c2ccc3c(c2)CCN3)CC1	-1.5	-0.45
O=C(CCCNC(=O)Cn1cnc2sc3c(c2c1=O)CCCC3)NCc1ccco1	-0.67	·
CC1CCCCC1NC(=O)c1csc2c1CCCC2 (stereo not drawn)	-1.2	-0.66
CCOc1ccc(OCc2ccc(C(=O)NC(C)C)o2)cc1	0.59	-0.01
CC(Sc1nc2ncccc2[nH]1)C(=O)Nc1ccc2c(c1)OCCO2 (stereo not drawn)	·	1
O=S(=O)(c1cccc2nonc12)N1CCCN(CCc2ccccc2)CC1	0.52	·
O=C(CSCc1ccccc1)NC1Cc2ccccc2C1	-0.01	·
Cc1cc(NC2CCCC2)n2nc(C)c(-c3ccc(F)cc3)c2n1	-1.9	0.28
CC1(C)Cc2nc3oc4c(NCCCO)ncnc4c3cc2CO1	·	-0.4
Cc1ccc(Cc2cnc(NC(=O)c3ccc4snnc4c3)s2)cc1	-1.6	0.87

Part of the list above in another layout.
compound,CDC25B-CDK2 inh,HIV TAR-Tat
CCOC(=O)c1nc(-c2nn(-c3ccc(F)cc3)c(=O)n(C)c2=O)no1,-1.6,0.95
Cc1noc(/C=C/c2ccc(S(=O)(=O)Nc3ccc(Cl)cc3)s2)c1[N+](=O)[O-],·,1
Cc1ccc(-c2noc(CCn3c(=O)[nH]c4cc5c(cc4c3=O)OCO5)n2)cc1,·,0.89
COc1cccc(Cn2cc3c(-c4ccc(F)cc4)nnc-3c3cc4c(cc32)OCO4)c1,-2.8,0.31
COc1ccccc1/C=C/c1nc(C#N)c(N(C)C)o1,-0.46,1.2
CCOC(=O)C1CCN(S(=O)(=O)c2cc3[nH]c4c(c3cc2CC)C(=O)CC(C)(C)C4)CC1,·,0.08
O=C(Nc1ccc2nc(SCc3cc(=O)n4nc(C5CC5)sc4n3)sc2c1)c1ccco1,·,0.8
Cc1ccc(-c2cc(C(F)(F)F)c(C#N)c(SCC(=O)O)n2)cc1,-0.58,0.21
O=C(Nc1nc2c(ccc3ccccc32)s1)c1ccco1,-0.28,0.96
Cc1ccc(C)c(N2C(=O)N(Cc3ccccc3F)C3CS(=O)(=O)CC32)c1 (stereo not drawn),·,0.31
COc1ccc(-c2nnc(C3CCN(S(=O)(=O)c4cccs4)CC3)o2)cc1,1.3,0.33
O=C1COc2cc(S(=O)(=O)N3CCc4ccccc4C3)c(Cl)cc2N1,·,1.6
NS(=O)(=O)c1ccc(NC(=O)CSc2nnc3ccccn23)cc1,-0.19,·
COc1ccc2ncc(S(=O)(=O)c3ccccc3)c(N3CCN(c4ccccc4)CC3)c2c1,-0.08,0.72
CCOC(=O)N1CCN(CC(=O)c2ccc3c(c2)CCN3)CC1,-1.5,-0.45

(continued)
SMILES	CDC25B-CDK2 inh	HIV TAR-Tat
O=C1CC(c2ccc(F)cc2)Cc2nc(N3CCc4ccccc4C3)ncc21 (stereo not drawn)	-0.83	-0.46
O=C(CCCSc1nc(-c2ccco2)cc(C(F)(F)F)n1)Nc1ccccc1F	-1	-1.6
Cc1cc(C)cc(NC(=O)CSc2nc3c(c(=O)n2C)SCC3)c1	-2.1	0.4
O=C(CN1C(=O)COc2ccc(S(=O)(=O)N3CCCCCC3)cc21)NCCN1CCOCC1	-1.6	·
COc1cc(C(=O)NC(=S)NC(N)=O)cc(OC)c1OC	-0.41	·
Nc1ccccc1Sc1nc(Cl)nn1Cc1ccc(Cl)cc1	·	1
COc1ccc(NC(=O)CCc2nc3sc4c(c3c(=O)[nH]2)CCCCC4)c(OC)c1	·	1.3
CCS(=O)(=O)NCCc1csc(-c2cccc(F)c2)n1	·	2.4
Nc1cc(C(=O)N2CCCC2)ccc1O	·	1.3
Cc1cc(C)c2c(=O)cc(CSc3n[nH]c(C)n3)[nH]c2c1	·	-3.9
CSc1ncc2c(n1)-c1ccccc1N(C)S2(=O)=O	·	-0.25
CC1CCCCN1CCCNC(=O)c1noc2c1CCc1sccc1-2 (stereo not drawn)	·	1.1
O=C(Cn1cnc2c(nnn2Cc2ccc(Cl)cc2)c1=O)NCc1ccco1	0.08	·
C=CCSc1nc2c(c(=O)[nH]1)C(c1ccccc1OC(C)C)CC(=O)N2 (stereo not drawn)	-1.7	0.42
O=c1[nH]snc1N1CCCCC1	-0.71	-1.4
O=S(=O)(Nc1cccc2cccnc12)c1cc(Cl)c(Cl)cc1Cl	0.18	·
COc1ccc(C2Nc3ccccc3NC3=C2C(=O)CC(C)(C)C3)cc1OC (stereo not drawn)	-2.1	-14
Cc1nnc(NC(C)C)c2c1nnn2Cc1ccc(F)cc1	-1.2	-1.3
COC(=O)c1ccc(CSc2nnc(-c3ccncc3)n2Cc2ccccc2)o1	-1.1	2
COc1ccc(C2C=C(C(=O)O)Nc3ncnn32)cc1O (stereo not drawn)	·	0.97
CCCc1cc(=O)n2nc(N3CCC(C(=O)NC4CCCCC4)CC3)sc2n1	-1.1	0.15
CC(=O)c1csc(CS(=O)(=O)c2ccc(Cl)cc2)n1	-1.5	·
Cc1sc2ncnc(Nc3ccc(C(F)(F)F)cc3)c2c1S(=O)(=O)N1CCC(C)CC1	-1.5	·
CCCn1c2ccccc2c2cnn(CC(=O)NC3CCCCC3)c(=O)c21	·	1.7
Cc1ccnc(N2C(=O)c3ccccc3C2Nc2cc(C)ccc2C)c1 (stereo not drawn)	-1.2	0.67
COC(=O)C1=COC(C)C2CN3CCc4c([nH]c5ccccc45)C3CC12 (stereo not drawn)	0.4	-8.7
CC1CCN(S(=O)(=O)c2ccc(-c3ccc(=O)[nH]n3)s2)CC1	·	-0.33
CCCCC(=O)N(Cc1ccc(-c2ccccc2-c2nn[nH]n2)cc1)[C@H](C(=O)O)C(C)C	·	1.9&1.5
Cn1nc(-c2ccccc2)cc1NC(=O)Nc1ccc(OCc2ccccc2)cc1	-0.31	·
CCC(C)NC(=O)CC1Oc2ccccc2NC1=O (stereo not drawn)	-1	2.4
CCCCCCCn1c(CN2CC(C)OC(C)C2)nc2c1c(=O)n(C)c(=O)n2C (stereo not drawn)	-1.3	-1.6
C=C1CC[C@H]2O[C@]2(C)CC[C@@H]2[C@@H]1CC2(C)C	·	1.3
CSCCC(C(=O)O)N1C(=O)c2ccc(C(=O)O)cc2C1=O (stereo not drawn)	-0.13	·
Fc1cccc(CN2CCN(Cc3ccc4ccccc4c3)CC2)c1	1.3	0.02
COc1ccc(OC)c(S(=O)(=O)NCc2ccc(S(N)(=O)=O)cc2)c1	-8.8	·
Cn1cccc1CNCCSc1nnnn1C	-1.8	-0.63
CCOc1cc(C2c3c(oc4ccccc4c3=O)C(=O)N2c2nnc(C(C)C)s2)ccc1O (stereo not drawn)	-0.11	0.4
S=C(Nc1ccc(Cl)cc1)Nc1ccc(Cl)cc1	-0.8	·
Clc1ccc(CN2CCN(C3CCCC3)CC2)cc1	0.21	-1.2
O=c1c2sccc2[nH]c(=S)n1CCCN1CCCCCC1	1.1	·
COc1ccc(C2CC(=O)C3=C(C2)NC(=O)CC3c2ccc(F)cc2F)cc1OC (stereo not drawn)	-2.5	0.19
CCn1cnc2c(=O)oc3ccc(S(=O)(=O)NCc4ccccc4)cc3c21	-0.16	0.95
CCOc1ccc(N(C)C(=O)[C@H]2[C@@H]3C[C@@H]4[C@H]2C(=O)O[C@@H]4C3)cc1	-0.84	6.3
CCOC(=O)c1c(S(=O)(=O)N2CCCC(C(=O)N3CCC(C)CC3)C2)c(C)n(C)c1C (stereo not drawn)	·	1.4
Cc1c(C(=O)N2CCC(C)CC2)sc2nc3n(c(=O)c12)CCCC3	·	2.4
O=C(O)CSc1nc2ccccc2nc1Cc1ccccc1F	-1.2	-0.66
CCOC(=O)c1c(NC(=O)c2sc(C)nc2C)sc(C(=O)OC(C)C)c1C	-2.4	2.4
COc1ccc(-c2ccnc3c2c(=O)n(C)c(=O)n3C)cc1OC	0.66	1.3
Cc1ccc(-c2nc3sc(CCNS(=O)(=O)c4ccc5ccccc5c4)c(C)n3n2)cc1	·	1.4
CC(=O)N1c2ccc(S(=O)(=O)N3CCCCC3)cc2CC1C(=O)Nc1nc2ccccc2s1 (stereo not drawn)	·	-1.4
CCC1Oc2ccc(Cl)cc2N(CC(=O)N2CCN(c3c(C)n(C)c(=O)n(C)c3=O)CC2)C1=O (stereo not drawn)	·	1
COCCNc1nc2c(S(=O)(=O)c3cccc(Cl)c3)nnn2c2ccsc12	·	0.54
CCCCNC(=O)N1CCC(C(=O)c2c(C)c(C)c(C)c(C)c2C)CC1	-1.3	·
CCN(C(=O)Cn1ncc2c1-c1cc(C)ccc1OC2)c1cc(C)ccc1C	-1.4	-1.2
Cc1ccc(S(=O)(=O)[C@H]2CS(=O)(=O)C[C@@H]2N2CCN(Cc3ccc4c(c3)OCO4)CC2)cc1	-1.6	1.4
COc1ccc(C2=NN(S(=O)(=O)c3ccccc3)C(c3ccccc3)C2)cc1OC (stereo not drawn)	-2.2	·
O=C(CN1Cc2ccccc2C1=O)Nc1ccc2c(c1)OCCO2	·	-1.2
COC(=O)CSc1nc2ccccc2nc1Cl	-1.7	1.1
CCOC(=O)c1sc2nc(C)nc(Oc3cccc(F)c3)c2c1C	·	0.54
CCCCSc1nnc(NC(=O)c2nn(-c3ccc(OC)cc3)ccc2=O)s1	-1.7	1
Next section.
SMILES	CDC25B-CDK2 inh	HIV TAR-Tat
CCS(=O)(=O)Nc1ccc2sc(NC(=O)C(C)C)nc2c1	·	2
Cc1ccc(C)c(CN2CCC(CNS(=O)(=O)c3ccc(-c4ccc(=O)[nH]n4)s3)CC2)c1	·	0.42
Cc1n[nH]c(C)c1CC(=O)NCCc1cccs1	·	0.13
Cc1ccc(-c2nc(SCC(=O)Nc3nc(C)cs3)[nH]c(=O)c2C#N)cc1	0.51	-0.47
Fc1ccccc1Nc1ncc2c(n1)CCN(Cc1cccc(F)c1F)C2	·	0.82
COc1cc(C2C(C(=O)OCC3CCCO3)=C(C)NC3=C2C(=O)CC(c2cccs2)C3)ccc1O (stereo not drawn)	-0.86	2.5
Cn1c(NCc2ccccc2)nc2c1c(=O)n(Cc1ccccc1F)c(=O)n2C	-1.5	1.2
C=CCN(C(=O)C(NS(=O)(=O)c1ccc2c(c1)CCN2C(C)=O)C(C)C)c1ccccc1 (stereo not drawn)	-0.29	·
Cc1cc(C)c(S(=O)(=O)NCCc2cc3ccc(C)cc3[nH]c2=O)c(C)c1	-3.2	·
O=c1c2ccccc2nc2n1CCN2Cc1ccc(Br)cc1	-0.19	-0.28
O=c1c2c(nc3n1CCCCC3)-c1ccccc1CC21CCCCC1	-0.26	·
CN1C(=O)C(C)(C)c2cc(S(=O)(=O)N3CCCC(CN4CCc5ccccc5C4)C3)ccc21 (stereo not drawn)	·	0.25
Cc1ccc2ncnc(NCc3ccco3)c2c1	-0.56	0.38
Cc1ncc(-c2ccc(S(=O)(=O)Nc3ccccc3)cc2)o1	·	1.1
CCOCCOC(=O)C1=C(C)NC2=C(C(=O)CC(C)(C)C2)C1c1ccc(Br)cc1 (stereo not drawn)	-0.33	0.28
Clc1ccccc1Nc1nc2ccccc2c2nncn12	-3	-0.71
Cc1ccc(-c2cnc(C3CC3)o2)cc1S(=O)(=O)NCc1ccccc1	·	0.77
CN1CCN(C(=O)CSc2nc3c(c(C(F)(F)F)n2)CCc2ccccc2-3)CC1	-1.3	2
CC1CCN(c2nn3c(=O)c(C(=O)NCc4ccco4)cnc3s2)CC1	·	23
CCOCCCNC(=O)Nc1nnc(N2CCCC(C)C2)s1 (stereo not drawn)	-2.5	-0.07
O=C(Cn1cc(S(=O)(=O)Cc2ccccc2)c2ccccc21)NC1CCCC1	·	-1.8
Fc1ccccc1-c1noc(N2CCN(c3ccccc3F)CC2)n1	·	1.4
Cc1ccc(-c2noc(-c3cccc(Br)c3)n2)cc1	-0.88	2.4
O=C(CSc1nc(-c2ccccc2Cl)nc2cc(=O)[nH]n12)Nc1ccccc1F	·	13
CCCCNC(=O)NC1COc2ccc(OC)cc2C1 (stereo not drawn)	·	0.71
O=C(N1CCN=C1c1ccccc1)N1c2ccccc2Sc2ccccc21	-0.48	0.81
Cc1c(OCc2ccccc2)ccc2c(O)c(C(=O)Nc3cccc(Cl)c3)c(=O)oc12	-1.8	·
CCCC1c2ccc(C)n2CCN1C(=O)Nc1ccc(Br)c(C)c1 (stereo not drawn)	-2.8	-8.7
CCN(CC)c1nc(Nc2ccc(Cl)cc2)c2cnn(C)c2n1	·	0.1
O=C(CSCc1cnn(-c2ccccc2)c1-n1cccc1)Nc1ccc(F)cc1	-4.2	1.1

No enrichment for hits. Share with any hit: about 0.97%.
